Source: PubChem BioAssay (National Center for Advancing Translational Sciences (NCATS))
RE007 growth inh – less growth of the S. pombe RE007 Vpr strain. S. pombe RE007 Vpr strain, BacTiter-Glo ATP luminescence, 24 h; control for the full effect not named in the record. Potency, µM (titrated, usually from 92.2 µM), inactives show at the highest dose activity change, negative = less growth. actives 0.21% (n = 360,000). AID 651644; active = well fitted falling curve with a large enough effect; inconclusive = small, poorly fitted or top-dose-only effect; inactive = no such curve, though single readings can be large or run the other way;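 further: on the % scale 0 is the no-effect control and ±100 the full control effect; nearly all actives have a fitted effect of over 50% in size; the assay follows cell death caused by Vpr and the record does not say whether a fall means rescue or toxicity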
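Fission yeast RE007 carrying one integrated HIV-1 vpr copy, seeded at OD 0.01 in PMG+AL medium with 23 nL pinned compound. Grown 24 h at 30 degrees; viability read by BacTiter-Glo luminescence after 5 min.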
Cruzain inh noDet – cruzain (T. cruzi) inhibition without detergent; P25779; purified cruzain, Z-FR-AMC fluorescence, no detergent; Potency, µM, without a hit: max response, negative = inhibition, most hits filed as inhibitors; actives 2.3% (n = 200,000);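 further: plate controls were enzyme without inhibitor for no effect and buffer without enzyme for full effect; nearly all actives have a fitted effect of over 40% in size; top concentration of the series not given in the record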
Target sequence (P25779 123-467 limits assumed): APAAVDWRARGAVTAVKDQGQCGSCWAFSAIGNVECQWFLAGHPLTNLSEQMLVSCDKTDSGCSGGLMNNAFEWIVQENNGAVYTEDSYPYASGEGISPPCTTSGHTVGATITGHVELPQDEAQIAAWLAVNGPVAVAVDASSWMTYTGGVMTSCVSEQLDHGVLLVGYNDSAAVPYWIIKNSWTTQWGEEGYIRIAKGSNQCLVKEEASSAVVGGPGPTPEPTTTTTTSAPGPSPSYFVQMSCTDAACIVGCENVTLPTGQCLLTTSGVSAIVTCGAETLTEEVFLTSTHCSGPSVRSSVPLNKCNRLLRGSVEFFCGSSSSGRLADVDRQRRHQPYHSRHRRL
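Detergent-free condition (0.00005% Triton X-100) in acetate buffer pH 5.5 with DTT. 1.5 nM enzyme and compound were pre-mixed 15 min, then 2 uM Z-FR-AMC substrate added; reaction progress from fluorescence change between first and third reads (60 s).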
Cruzain inh Det – inhibitors of Trypanosoma cruzi cruzain with detergent | P25779 | purified cruzain, Z-FR-AMC fluorescence, 0.01% Triton | Potency, µM, for inactives: max response, negative = inhibition, usual class: inhibitors | actives 0.43% (n = 200,000);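 further: plate controls were neutral wells for no effect and buffer without enzyme for full effect; nearly all actives have a fitted effect of over 40% in size; top concentration of the series not given in the record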
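Detergent-containing arm of a paired screen for aggregation-based inhibition: 0.01% Triton X-100 present. Cruzain at 1.5 nM cleaved 2 uM Z-FR-AMC at pH 5.5 with 5 mM DTT; AMC fluorescence gain over 60 s measured activity.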
Marburg entry inh – blocks Marburg virus binding to or entry into cells; Potency, µM (series often up to 37.8 µM), for the others: at the top dose activity change, negative = inhibition, most hits filed as inhibitors; Marburg virus pseudotyped entry inhibition, cell reporter; control for the full effect not named in the record; about a third of the inactives were read at about 46 µM; actives 1.8% (n = 300,000); AID 540276; active = well fitted inhibition curve with a large enough effect; inconclusive = small, poorly fitted or top-dose-only effect, or effect the other way; inactive = flat fitted curve, though single readings scatter; tested in HEK293 cells; about a fifth of its hits are not listed in these tables; further: on the % scale 0 is the no-effect control and ±100 the full control effect; luciferase read-out
SARS PLpro yeast – inhibitors of SARS-CoV papain-like protease in yeast | S. cerevisiae expressing SARS-CoV PLpro, growth rescue; control for the full effect not named in the record | Potency, µM (doses to about 32.9 µM), for the others: at the highest dose activity, positive = growth rescue | actives 0.19% (n = 330,000); active means well fitted rising curve with a large enough effect; inconclusive means small, poorly fitted or top-dose-only effect; inactive means no such curve, though single readings can be large or run the other way; further: 0% is about no effect; nearly all actives have a fitted effect of over 55% in size; growth read by luminescence after 48 h
StopGo reporter – lowers the luciferase signal of an FMDV 2A StopGo reporter; human cells with a luciferase reporter of 2A StopGo recoding; control for the full effect not named in the record; AID 1159524; Potency, µM (titrated, usually from 57.9 µM), inactives show at the top dose signal change, negative = less light; actives 1.2% (n = 410,000); active = well fitted falling curve with a large enough effect; inconclusive = small, poorly fitted or top-dose-only effect; inactive = no such curve, though single readings can be large or run the other way; tested in HEK293T cells; further: on the % scale 0 is the no-effect control and ±100 the full control effect; nearly all actives have a fitted effect of over 45% in size; luciferase light after 4 h
NS1 function inh – inhibitors of influenza NS1 protein function. S. cerevisiae slowed by influenza A NS1, growth recovery by OD600. Potency, µM (top dose mostly 46.1 µM), for inactives: top-dose activity, positive = more growth. actives 0.4% (n = 270,000). AID 2326; active means well fitted rising curve with a large enough effect; inconclusive means small, poorly fitted or top-dose-only effect; inactive means no such curve, though single readings can be large or run the other way; further: nearly all actives have a fitted effect of over 50% in size
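OD600 was taken as the measure of yeast growth restored by compound in an NS1-expressing S. cerevisiae strain. Cells had been washed out of glucose medium and diluted 1:100 into galactose -URA medium, pH 6.0.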
LASV entry inh – inhibitors of Lassa virus binding or cell entry | AID 540256 | actives 1.2% (n = 300,000) | Lassa virus pseudotype entry inhibition, cell reporter; control for the full effect not named in the record | Potency, µM (series often up to 37.9 µM), for inactives: top-dose activity change, negative = inhibition, usual class: inhibitors; active means well fitted inhibition curve with a large enough effect; inconclusive means small, poorly fitted or top-dose-only effect, or effect the other way; inactive means flat fitted curve, though single readings scatter; tested in HEK293 cells; further: on the % scale 0 is the no-effect control and ±100 the full control effect; nearly all actives have a fitted effect of over 50% in size; luciferase read-out
The depositor's hits bear a star; ? = inconclusive; nt = no result given; & = joins results of further samples; [ ] = another dose, or the depositor's remark. Unless noted, the call rests on the fitted dose curve; in most records, active means well fitted curve in the direction sought with a large enough effect; inconclusive means small, poorly fitted or top-dose-only effect, or another doubt; inactive means no such curve, though single readings can be large; an effect the other way counts as inactive or inconclusive. Potency means the concentration at half of the fitted maximal effect.

SMILES,RE007 growth inh,Cruzain inh noDet,Cruzain inh Det,Marburg entry inh,SARS PLpro yeast,StopGo reporter,NS1 function inh,LASV entry inh
CCC1CCCCN1Cc1cn2c(-c3ccc(Br)cc3)nnc2s1 (stereo not given),nt,-2%,1.4%,nt,nt,0%,nt,-22%[46.1 µM]
O=C(NCc1ccccc1F)c1sc2ncccc2c1-n1cccc1,nt,0%,-8.2%,nt,nt,-7%,nt,1%[46.1 µM]
CC1CC(C)CN(S(=O)(=O)c2ccc3oc(=O)ccc3c2)C1 (stereo not given),4%,nt,nt,nt,-2%,-22%,2%,nt
COc1ccc(-n2nnnc2SCC(=O)NNC(=O)c2ccc([N+](=O)[O-])cc2)cc1,15%,-10%,-2.5%,1%,-3%,-20%,13%,17%
COC(=O)C1CCN(CC(=O)Nc2cc(C)c3c(=O)oc4ccccc4c3n2)CC1,nt,0%,-1.6%,2%[46.1 µM],nt,2%,nt,-19%[46.1 µM]
Cc1oc2ncn(C)c(=O)c2c1C(=O)N1CCN(c2ccccc2F)CC1,nt,-4%,0.1%,21%[46.1 µM],nt,0%,nt,1%[46.1 µM]
CCN(CC(=O)Nc1ccccc1C(F)(F)F)C(=O)CCOc1ccc(C)cc1,-14%,nt,nt,-1%,-2%,-28%,nt,-3%[46.1 µM]
Nc1ccc2c(=O)[nH][nH]c(=O)c2c1,1%,nt,nt,1%[46.1 µM],nt,3%,nt,-19%[46.1 µM]
COc1ccc(C2c3ccc(O)cc3Oc3ncn(CC(C)C)c(=N)c32)cc1 (stereo not given),-6%,nt,nt,?,1%,-14%,1%,?
COc1nc(N2CCCCCC2)nc(N2CCCCCC2)n1,?,-1%,-1.3%,-9%,-9%,?,-3%,15%
CN(C)c1ccc(P(=O)(OCc2ccccc2)C(O)c2ccc(Cl)cc2)cc1 (stereo not given),0%,nt,nt,-18%,1%,21%,4%,-27%
Cc1cccc(NC(=O)NC(C)C(c2ccccc2)N2CCN(C)CC2)c1 (stereo not given),-14%,nt,nt,7%,1%,-5%,nt,?
CC(C)c1ccc(/C=N/NC(=O)CC(=O)NC2CCCCC2)cc1,-6%,nt,nt,2%[46.1 µM],0%,10%,4%,-10%
O=[N+]([O-])c1cccc(Oc2cnccn2)c1,-11%,nt,nt,3%[46.1 µM],-2%,2%,-7%,0%[46.1 µM]
COC(=O)c1ccc(NC(=O)c2nc(S(=O)(=O)Cc3cccc(C)c3)ncc2Cl)cc1,9%,nt,nt,?,-7%,28µM*,-29%,?
CCn1c(N2CCN(C(=S)NC)CC2)nc2ccccc21,-7%,2%,4.5%,2%,1%,nt,3%,4%
CCCCn1c(N)c(N(CCOC)C(=O)c2cc3c(s2)CCCCC3)c(=O)[nH]c1=O,5%,nt,nt,?,-2%,-6%,nt,9%
Cc1ccc(C(=O)OCC(=O)NC(=O)c2cccn2C)cc1,-11%,?,0.1%,11%,1%,19%,1%,-8%
O=C(CNc1cc(S(=O)(=O)N2CCCC2)ccc1OCC(F)(F)F)Nc1ccc(SC(F)F)cc1,11%,16µM*,-8.0%,8.2µM*,-2%,-24%,14%,18µM*
O=C1N(Cc2ccccc2)CCCC12CCCN(Cc1ccccc1)C2=O,2%,11%,6.2%,0%,8%,0%,-10%,7%
Cc1cc2c(cc1S(=O)(=O)N(C)CC(=O)Nc1cccc(C#N)c1)OCC(=O)N2,nt,1%,0.6%,nt,nt,0%,nt,-13%[46.1 µM]
CN(C)C1(CNC(=O)COc2ccc([N+](=O)[O-])cc2)CCCCC1,nt,-6%,-2.5%,2%[46.1 µM],nt,22%,nt,5%[46.1 µM]
CCOC(=O)C1(CCc2ccccc2)CCN(Cc2cccc3c2OCO3)CC1,-7%,nt,nt,13µM*,-2%,?,3%,?
CC(C)(C)C1CCC(=NNC(=O)c2cc(-c3ccccc3)n[nH]2)CC1 (stereo not given),-22%,13µM*,0.9%,1%,2%,-13%,16%,0%
O=C(NCc1ccccc1Cl)C1CCN(S(=O)(=O)c2ccc(N3CCCC3=O)cc2)CC1,-6%,nt,nt,nt,2%,-9%,0%,nt
Cc1cc(C)n(-c2nc(NC(C)C)nc(NC(C)C)n2)n1,14%,6%,5.3%,?,-10%,0%,-12%,?
COc1ccc([N+](=O)[O-])cc1NC(=O)c1ccc(CN(c2ccc(C)c(C)c2)S(C)(=O)=O)cc1,-1%,?,-4.8%,-27%,-3%,?,?,-12%
CC(=O)c1cccc(NC(=O)c2ccc(N(Cc3ccccc3C)S(C)(=O)=O)cc2)c1,14%,?,-4.6%,?,-14%,?,-27%,-20%
CCn1c(SCC(=O)N2CCOCC2)nnc1-c1cccs1,-7%,-5%,1.8%,5%[46.1 µM],11%,-3%,1%,-26%
Oc1ccccc1-c1csc(-c2ccccc2)n1,-29%,nt,nt,?,-13%,26%,nt,6%
Clc1cccc(-c2noc3ncnc(NC4CCCCC4)c23)c1,nt,3%,-0.9%,0%[46.1 µM],nt,?,nt,15%[46.1 µM]
CCOC(=O)c1c(C)[nH]c(CCC(=O)NCc2ccc(F)cc2)c1C,nt,-4%,3.6%,nt,nt,-2%,nt,?
Nc1nnc(-c2ccccc2)c(-c2ccccc2)n1,10%,5%,-1.0%,0%,-7%,-2%,-9%,12%
CCOC(=O)c1c(NC(=O)c2nc3n(n2)C(C(F)F)CC(C)N3)sc2c1CCCC2 (stereo not given),6%,1%,-1.5%,-7%,-1%,nt,8%,-19%
Cc1nnc(-c2ccccc2)nc1N1CCOCC1,-22%,-5%,2.4%,-15%,0%,-10%,0%,12%
Cc1ccccc1NC(=O)CCC(=O)N1CCSc2ccccc21,nt,-3%,-1.1%,nt,nt,-10%,nt,-5%[46.1 µM]
CC(C)[C@H](NC(=O)N1c2ccccc2NC(=O)[C@@H]1C(C)C)C(=O)N[C@@H](C(=O)O)c1ccccc1,15%,nt,nt,nt,3%,-11%,11%,nt
CC1CCN(C(=S)Nc2ccc3nc4n(c(=O)c3c2)CCCCC4)CC1,-4%,-5%,-2.4%,?,-15%,-13%,-6%,1%
COc1ccccc1N(C)S(=O)(=O)c1ccc(C(=O)O)cc1,5%,nt,nt,19%[46.1 µM],-4%,31%[activator],nt,4%[46.1 µM]
CC/C(=N\NC(=O)Cc1ccc(Br)cc1)c1cccs1,0%,nt,nt,nt,0%,-4%,23%,nt
O=C(OCc1ccco1)c1ccc2c(c1)N(Cc1cccc(F)c1)C(=O)c1ccccc1S2,nt,?,-2.6%,nt,nt,-11%,nt,?
Cc1ccc(C(=O)OCC(=O)Nc2sc3c(c2C#N)CCCC3)cc1NC(=O)c1ccco1,-2%,?,-11%,?,-6%,-6%,-13%,1%
Fc1ccc(-c2nnc(SCc3ncc(-c4ccccc4)o3)n2CC2CCCO2)cc1 (stereo not given),9%,8%,-0.6%,8%[46.1 µM],-4%,13%,-1%,-5%
CC1CCCC(NC(=O)COC(=O)[C@@H]2CC(O)CN2S(=O)(=O)c2ccc3c(c2)OCCO3)C1C (stereo not given in full),12%,?,-11%,?,4%,-19%,-5%,19%
Cc1cc(-c2ccccc2)n2ncc(C#N)c2n1,-7%,3%,-0.7%,nt,-1%,-1%,-12%,nt
O=C(CSc1nc2ccccc2n1-c1ccccc1)NCC1CCCO1 (stereo not given),16%,5%,1.6%,2%,2%,-11%,-17%,5%
COc1ccc(NC(=O)CS(=O)(=O)c2ccccc2)cc1,5%,nt,nt,-7%,25%,61%[activator],6%,?
Cc1cc(NC(=O)CCC(=O)N(C(C(=O)NC(C)(C)C)c2ccccc2Cl)C(C)(C)C)no1 (stereo not given),5%,nt,nt,?,2%,-10%,2%,nt
C=CCn1c(SC(C)C(=O)NCc2ccc3c(c2)OCO3)nnc1C1CCCCC1 (stereo not given),-3%,-2%,3.0%,-3%,-9%,nt,-12%,-12%
CCOC(=O)Cn1c(N2CCOCC2)nc2c1c(=O)[nH]c(=O)n2C,-2%,3%,9.2%,13%,0%,-7%,1%,-2%

Other records
SMILES,RE007 growth inh,Cruzain inh noDet,Cruzain inh Det,Marburg entry inh,SARS PLpro yeast,StopGo reporter,NS1 function inh,LASV entry inh
O=C(NC1CC(=O)N(c2cccc(F)c2)C1)c1cc2ccccc2o1 (stereo not given),nt,-13%,-3.1%,nt,nt,-11%,nt,14%[46.1 µM]
O=C1c2ccccc2-c2ccc(C(=O)N3CCOCC3)cc21,-20%,-1%,-0.9%,2%,-3%,19%,-5%,2%
CS(=O)(=O)N(CC(=O)NCCc1ccccc1)C1CCCCC1,-10%,5%,2.4%,-4%,15%,1%,-8%,2%
Cc1ccc(CN2CCCN(Cc3c(C)cc(C)cc3C)S2(=O)=O)cc1,-1%,7%,-6.5%,nt,-6%,-10%&-10%,-3%,-7%[46.1 µM]
Cc1ccc(/C=N/N=C2/NC(=O)C(CC(=O)Nc3ccc(Cl)cc3)S2)o1 (stereo not given),12%,?,0.9%,nt,8%,-3%,12%,-14%
CCC(C)(C)n1nnnc1C(c1cccs1)N1CCN(Cc2ccccc2)CC1 (stereo not given),3%,1%,1.7%,-17%,0%,5%,-7%,-7%
O=C(N/N=C/c1ccc(-c2ccccc2[N+](=O)[O-])o1)c1cncc(Br)c1,16%,-2%,-8.8%,4%,-26%,-21%,-30%,0%
Cc1ccc(-n2cc(C(C)(C)C)[nH]c2=S)cc1,16%,-4%,-7.5%,0%,?,32%[activator],3%,-4%
Cc1ccc(S(=O)(=O)NNC(=O)c2ccccc2O)cc1,4%,8%,1.3%,-13%,-12%,38%[activator],-12%,-2%
COC(=O)c1ccc(C(C(=O)NC2CCCCC2)N(Cc2ccc(F)cc2)C(=O)Cc2cccs2)cc1 (stereo not given),nt,17%,-3.6%,-7%,3%,5%,11%,?
CC(C)CNC(=O)c1cc([N+](=O)[O-])ccc1N1CCCCC1,-14%,-22%,-9.0%,1%,0%,-5%,14%,1%
Cc1ccc(C)c(N2CCN(C(=O)Cn3ncc4c(=O)oc5ccccc5c43)CC2)c1,nt,-2%,-2.3%,?,nt,-14%,nt,-8%[46.1 µM]
